Biofilm kill mix: clotrimazole potentiators killing C. albicans biofilm, primary screen, 4-compound mixtures | actives 0.02% (n = 120,000) | C. albicans biofilm persisters + clotrimazole, fluorescence viability; primary screen in compound mixtures of four per well | inhibition, % at 7.6 µM;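 active = inhibition above 30.3% in the primary screen of four-compound pools, then above 30% when the compound was retested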;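 note: compounds exposed to preformed 24 h biofilms for 48 h; the number belongs to the whole pool; some results filed as inactive read as strong as hits; inactives centre near 12; 0% = biofilm with clotrimazole alone and 100% = kill control; retested singly at about 60 µM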
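Probe or stimulus – Clotrimazole 50 µg/mL co-treatment · System – C. albicans biofilms · Schedule – 24 h biofilm formation, then 48 h compound exposure, 37 °C · Evaluation – percent inhibition of biofilm viability · Technique – 2-h Alamar Blue fluorescence, 535/590 nm excitation/emission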
Numbers without * were called inactive. Some of the compounds tested (hit frequency here may not be typical).

nr	molecule	Biofilm kill mix
1	CCc1ccc(NC(=O)c2ccc3c(c2)C(=O)N(CCOC)C3Nc2ccc(CC)cc2)cc1 (stereo not drawn)	9
2	N/C(=N\c1nc(CSc2nc3ccccc3s2)cc(=O)[nH]1)Nc1ccc(F)cc1	18
3	CN(C)S(=O)(=O)c1ccc(NC(=S)NC(=O)c2cccs2)cc1	13
4	O=C(c1ccco1)N1CCN(c2c([N+](=O)[O-])nn(-c3ccc(Cl)cc3)[n+]2[O-])CC1	18
5	Cc1cc(NC(=O)CSc2nc(-c3ccco3)cc(C(F)(F)F)n2)n(-c2ccccc2)n1	11
6	Cc1ccc(NC(=O)C2CCN(S(=O)(=O)c3ccccc3)CC2)cc1	4
7	COc1cc(/C=N\NC(=O)c2ccc(C)nc2)ccc1OC(=O)c1ccco1	13
8	Cc1cccc(N2C(=O)CC(n3ccnc3)C2=O)c1C (stereo not drawn)	9
9	Cc1cc(NC(=O)CSc2nc(C(C)(C)C)nc3ccccc23)no1	2
10	O=C(C[n+]1cnn(CC(=O)c2ccc(Cl)cc2Cl)c1)c1ccc([N+](=O)[O-])cc1	7
11	O=C(Nc1cccc(S(=O)(=O)N2CCOCC2)c1)C(c1ccccc1)N1CCCCC1 (stereo not drawn)	6
12	Cc1cc(C(=O)Nc2nc(-c3ccccn3)cs2)ccc1[N+](=O)[O-]	20
13	Cc1c(C=O)c(=O)n(-c2ccccc2)n1C	11
14	O=C(N/N=C/C1CC=CCC1)c1ccc(O)cc1O (stereo not drawn)	17
15	S=C(NCc1ccc(Cl)cc1)NN1CCOCC1	5

(continued)
nr	molecule	Biofilm kill mix
16	Cc1c(C2Nc3ccccc3NC3=C2C(=O)CC(C)(C)C3)cnn1C (stereo not drawn)	12
17	COCCN=C1NN=C(c2cc(C)n(CC3CCCO3)c2C)CS1 (stereo not drawn)	19
18	c1ccc(C2Nc3ccccc3Oc3ccccc32)cc1 (stereo not drawn)	14
19	CCc1cc2c(=O)[nH]c(N3CCCC3)nc2s1	17
20	Nc1nc(Nc2ccccc2)nc(NCc2ccco2)c1[N+](=O)[O-]	13
21	O=C(NN1CCCCC1)c1cccc(COc2ccc(Cl)cc2)c1	15
22	O=C(Nc1ccc(Cl)cc1)N1CCc2ccccc2C1	15
23	O=C(OCc1ccc(Cl)cc1)c1cccnc1Cl	4
24	NC(=O)COC(=O)CSc1cccc2cccc(Cl)c12	20
25	Cc1ccc(C)c(N2CCN(C(=O)c3csc(C)c3C)CC2)c1	13
26	Cc1onc(-c2ccccc2Cl)c1C(=O)Oc1cccc2cccnc12	20
27	CCCOc1ccc(Cl)cc1CNc1ccccc1	5
28	CCOc1ccc(CC(=O)Nc2nccs2)cc1OCC	23
29	COc1cccc(OCC(O)CN2CCC(CN3C(=O)c4cccc5cccc(c45)C3=O)CC2)c1 (stereo not drawn)	0
30	CCC(=O)N=c1n(C)c2ccccc2n1CCOc1ccccc1	9

Continued.
nr	molecule	Biofilm kill mix
31	CC(=O)c1c(COC(=O)c2ccc(Cl)cc2)nc2ccccc2[n+]1[O-]	19
32	O=C(CN1CCN(Cc2ccc(F)cc2)C1=O)NC1CCCC1	16
33	Cn1c(N)c(C(=O)COC(=O)c2ccccc2NCc2ccco2)c(=O)n(C)c1=O	6
34	Cc1cc(C)c(S(=O)(=O)N2CCOCC2)cc1C	6
35	COc1cc2[nH]c(=S)nc(NC3CCCCCC3)c2cc1OC	14
36	Cc1cccc(C(O)(C(=O)NNc2ccc3ccccc3n2)c2cccc(C)c2)c1	20
37	Cc1cc(NC(=O)c2ccc(S(=O)(=O)N3CCOCC3)cc2)no1	7
38	Cc1ccc(OCc2ccc(C(=O)Nc3ccc(C(N)=O)cc3)o2)c([N+](=O)[O-])c1	12
39	Cn1cccc1Cc1nnc(SCC(=O)NCCc2ccccc2)n1C	13
40	COC(=O)[C@@H]1C[C@H]2CC[C@H](O)C[C@H]2N1Cc1ccc(C(F)(F)F)cc1	15
41	CC(C)CC(C)c1cc(N)nc2nc3ccccc3n12 (stereo not drawn)	21
42	N/C(=N\OC(=O)Cc1ccc(-c2ccccc2)cc1)c1ccccn1	10
43	COc1ccc(OC)c(NC(=O)CCNS(=O)(=O)c2ccc3c(c2)c(=O)n(C)c(=O)n3C)c1	5
44	Cc1ccc(-n2nc(C)c(C3(O)C(=O)N(C)c4ccccc43)c2N)cc1 (stereo not drawn)	7
45	CCOc1cc(NC(=S)Nc2ccc(Cl)cc2)c(OCC)cc1NC(C)=O	21

Carrying on.
nr	molecule	Biofilm kill mix
46	CCN(CC)c1ccc(NC(=S)NCC2CCCO2)cc1 (stereo not drawn)	2
47	C=CCn1c(SCC(=O)c2[nH]c(C)c(C(=O)OCC)c2C)nc2scc(-c3ccccc3)c2c1=O	15
48	COc1ccc(Cl)cc1NC(=O)C(=O)NCc1ccncc1	25
49	CSCCNCc1c(C(=O)N2CCOCC2)nc2c(C)cccn12	11
50	CC(C)c1cc(CNC(=O)CCc2nnc(CCCCc3ccccc3)o2)on1	22
51	Cc1nn(C)cc1C(C)Nc1nc2nonc2nc1N1CCCCC1 (stereo not drawn)	7
52	Cc1c(C#N)c(N)nc(Cl)c1C#N	3
53	CN1CCC(NC(=O)Nc2ccc(Br)cc2)CC1	20
54	CCN(CC)c1ccc(/C=N/NS(=O)(=O)c2ccc(C)c([N+](=O)[O-])c2)cc1	16
55	Cc1ccc([N+](=O)[O-])cc1N	11
56	CC(=O)Nc1cccc(Nc2nc(-c3ccccc3)nc3ccccc23)c1	14
57	CC1CCN(c2ccc([N+](=O)[O-])cc2C(N)=O)CC1	6
58	FC(F)(F)c1ccc2c(c1)[nH]c(=S)n2C1CC1	2
59	CC(C)(C)n1ncc2c(=O)n(CC(=O)N3CCCCC3)cnc21	6
60	NC(=O)COc1ncnc2scc(-c3ccc(F)cc3)c12	-12

Random excerpt: 5 compounds from above, in no set order.
nr	molecule	Biofilm kill mix
48	COc1ccc(Cl)cc1NC(=O)C(=O)NCc1ccncc1	25
52	Cc1c(C#N)c(N)nc(Cl)c1C#N	3
59	CC(C)(C)n1ncc2c(=O)n(CC(=O)N3CCCCC3)cnc21	6
58	FC(F)(F)c1ccc2c(c1)[nH]c(=S)n2C1CC1	2
57	CC1CCN(c2ccc([N+](=O)[O-])cc2C(N)=O)CC1	6

Some of the entries above, reformatted.
(54) CCN(CC)c1ccc(/C=N/NS(=O)(=O)c2ccc(C)c([N+](=O)[O-])c2)cc1
  Biofilm kill mix: 16
(55) Cc1ccc([N+](=O)[O-])cc1N
  Biofilm kill mix: 11

Further entries.
nr	molecule	Biofilm kill mix
61	O=C(O)CC1(CC(=O)NCc2ccncc2)CCCCC1	12
62	CCCSc1nnc(NC(=O)c2ccco2)s1	9
63	O=C(Oc1ccc(N(C(=O)c2ccncc2)S(=O)(=O)c2ccc(Cl)cc2)cc1)c1ccncc1	10
64	Nc1nc(-c2ccc(Cl)cc2)nc(-c2ccc(Cl)cc2)n1	10
65	O=C(Nc1ccc(NC(=O)c2cccs2)cc1)c1cccnc1	4
66	Cc1ccc(C(=O)c2cnc3cc4c(cc3c2S(=O)(=O)c2ccccc2)OCCO4)cc1	7
67	Cc1cc(NC(=O)CSc2nnc(NC(=O)C3CC(=O)N(c4ccccc4)C3)s2)no1 (stereo not drawn)	8
68	NC1=NC[C@H](c2ccccc2)N1CCc1cc(C(F)(F)F)cc(C(F)(F)F)c1	18
69	O=C(CCn1cnnn1)Nc1ccc(F)cc1	25
70	NS(=O)(=O)c1ccc(CCNC(=O)Cc2ccccc2[N+](=O)[O-])cc1	11
71	CCc1ccc(C(=O)NCc2ccc(Cl)cc2Cl)cc1	-11
72	Cn1nc([N+](=O)[O-])nc1Oc1ccccc1F	8
73	CN(C(=O)NC1CCCCC1)c1ccccc1	5
74	CS/C(N)=N/N=C/c1ccc2c(c1)OCO2	18
75	CCC(Oc1cc(Cl)ccc1Cl)C(=O)NNC(=O)CCC(=O)O (stereo not drawn)	6

More compounds.
nr	molecule	Biofilm kill mix
76	C#CCOCCOCCOCCNc1nc(N2CCN(C(=O)[C@H](CCC(=O)O)n3cc(C(N)[C@H](C)CC)nn3)CC2)nc(N2CCN(C(=O)[C@H](CCC(=O)O)n3cc(C(N)[C@H](C)CC)nn3)CC2)n1 (stereo partly drawn)	15
77	CCN(C(=O)CN1C=NS(=O)(=O)c2ccccc21)c1ccccc1	9
78	O=C(c1ccc(COc2ccccc2Cl)o1)N1CCN(Cc2ccc3c(c2)OCO3)CC1	11
79	Cc1c(Cl)c(C(F)(F)F)nn1CC(=O)NCc1ccco1	11
80	Cc1nn(-c2ccccc2)c(Cl)c1C(=O)NCCN(C)C	9
81	Cc1cccc(S(=O)(=O)c2c(N)n(-c3ccccc3)c3nc4ccccc4nc23)c1	19
82	COc1ccc(O)c(/C=N/NC(=S)Nc2cccc(S(=O)(=O)N(C)C)c2)c1	13
83	COc1ccc(S(=O)(=O)N2CCCCC2)cc1NCC(=O)Nc1ccc(C)cc1	9
84	CS(=O)(=O)c1ccc2nc(NC(=O)CN3C(=O)C4CC=CCC4C3=O)sc2c1 (stereo not drawn)	7
85	Cc1ccc(NC(=S)N(CCCN2CCOCC2)Cc2ccco2)cc1	6
86	C[C@@H]1NC(=O)c2cc([N+](=O)[O-])cc(F)c2NCCC[C@@H](C(N)=O)NC(=O)[C@H](CC(N)=O)NC1=O	13
87	Cc1ccc(-c2nc(SCC(=O)NCC3CCCO3)c(-c3ccccc3)[nH]2)cc1 (stereo not drawn)	9
88	CSc1cccc(NC(=S)N2CCC(N(C)C3CCCCC3)CC2)c1	26
89	Cc1cccc(NC(=S)N(CCCN(C)C)Cc2cc3cc4c(cc3[nH]c2=O)OCO4)c1	20
90	Cc1ccc(/C=C(\NC(=O)c2ccccc2)C(=O)NC(Cc2ccccc2)C(=O)O)cc1 (stereo not drawn)	8

Further records:
nr	molecule	Biofilm kill mix
91	CC(=O)Nc1ccc(NC(=O)C(C)OC(=O)c2ccc(C)s2)cc1 (stereo not drawn)	-7
92	N#C/C(=C\c1ccncc1)C(N)=O	5
93	CCN1CCCC1CNCC(=O)Nc1ccc(OC(F)(F)F)cc1 (stereo not drawn)	18
94	COc1ccc(CC(=O)OCn2nnc3ccccc3c2=O)cc1OC	30
95	CCC(C)(C)C1CCC(=NNS(=O)(=O)c2ccc(C)c([N+](=O)[O-])c2)CC1 (stereo not drawn)	15
96	CCC(C)NC(=O)Cn1c(=O)n(CCCCCC(=O)Nc2ccccc2)c(=O)c2sccc21 (stereo not drawn)	10
97	CNNC(=S)NC1CC2CC1C1C=CCC21 (stereo not drawn)	0
98	Cc1nn(CC(=O)OCC(=O)Nc2ccccc2[N+](=O)[O-])c(C)c1[N+](=O)[O-]	6
99	CN(C)c1cccc(C(=O)Nc2cc(C(F)(F)F)ccc2-n2cnc3ccccc32)c1	27
100	OCCCNc1ncnc2c1[nH]c1ccccc12	19
101	CC(c1ccccc1)N(NC(=O)C(O)(c1ccccc1)c1ccccc1)C(=O)c1ccccc1 (stereo not drawn)	11
102	Cc1ccc(S(=O)(=O)N(C)C)cc1NC(=O)c1cccs1	16
103	N=C1C(c2nc(-c3cccc([N+](=O)[O-])c3)cs2)=C(O)CN1NC(=O)c1ccco1	-1
104	CCOC(=O)n1c(=O)n(C)c2ccc(Cl)cc21	8
105	CCOC(=O)c1c(NC(=O)CN2CCCCC2)sc(C)c1C	13

Further records follow:
nr	molecule	Biofilm kill mix
106	COc1cc2c(cc1NC(=O)C(C)Sc1ccc(NC(C)=O)cc1)oc1ccccc12 (stereo not drawn)	-4
107	Cc1cc(NC(=O)CCC(=O)N(CC(=O)NCC2CCCO2)c2ccc3c(c2)OCCO3)no1 (stereo not drawn)	18
108	Cc1cc(S(=O)(=O)n2cnc3cc([N+](=O)[O-])ccc32)ccc1Cl	6
109	COc1ccccc1-n1cnc2c(c1=O)c1nc3ccccc3nc1n2CCc1ccccc1	8
110	CC(=O)Nc1ccc(NC(=O)CCn2nnc3ccccc32)cc1	-1
111	CCO[C@H]1OC(C(=O)NCc2ccccc2)=C[C@@H](c2ccc3c(c2)OCO3)[C@@H]1CCCO	4
112	O=[N+]([O-])/C(C(=C(Cl)Cl)N1CCOCC1)=C1\NCCO1	1
113	Cc1cc(C)n(CC(O)COc2ccc3ccccc3c2)n1 (stereo not drawn)	26
114	O=c1cccc2n1Cc1cc3ccccc3nc1-2	14
115	O=C(Cc1cccc(C(F)(F)F)c1)NCC(c1ccco1)N1CCCCC1 (stereo not drawn)	10
116	CN(C)c1c(F)cc(-c2nn[nH]n2)cc1F	23
117	CC1CCc2sc(NC(=O)C3CC(Cl)=CCC3C(=O)O)c(C#N)c2C1 (stereo not drawn)	15
118	COc1ccc(NCC(=O)N/N=C/c2c(C)nn(Cc3ccccc3)c2Cl)cc1	7
119	O=C1CC(N2C(=O)/C(=C/C=C/c3ccccc3)SC2=S)C(=O)N1c1ccccc1 (stereo not drawn)	10
120	N#CC1=C(N)Oc2cc(N)ccc2C1c1cccnc1 (stereo not drawn)	6

(more compounds)
nr	molecule	Biofilm kill mix
121	COc1ccc(NC(=O)CN2C(=O)C(c3ccccc3)=NC23CCCCCC3)cc1	17
122	O=C(c1ccc(-c2cc(Cl)ccc2Cl)o1)N1CCOCC1	6
123	O=C(Nc1ccc(CN2CCCCC2)cc1)c1c(F)c(F)c(F)c(F)c1F	20
124	O=C1N[C@@H](Cc2ccccc2)[C@@H](c2ccco2)O1	8
125	COc1ccc(-c2n[nH]c(=S)n2/N=C/c2cccn2C)cc1	5
126	COc1ccc(C(=O)CN2C(=O)c3ccccc3C2=O)cc1	16
127	COc1cccc(N=Nc2c(N)[nH]n3c(=O)c4c(nc23)CCCC4)c1	17
128	COc1ccc(N2C(=O)CC(SC(C)C)C2=O)cc1 (stereo not drawn)	7
129	COc1ccc(-c2nc3c(-c4ccccc4)cnn3cc2C)cc1F	7
130	O=C(CNS(=O)(=O)c1ccccc1)NCc1cccnc1	19
131	CCNC(=O)COc1ccc(CC)cc1	7

Screening data (PubChem)
